Source: PubChem (Johns Hopkins Ion Channel Center)
KCNQ2 enhance = potentiators of rat KCNQ2 potassium channel; B-score at 10 µM; 310,000 compounds, 0.54% hits; Potassium voltage-gated channel subfamily KQT member 2 (Rattus norvegicus), O88943; CHO-K1 KCNQ2, FluxOR thallium flux fluorescence; stronger effect = higher value;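 active = fluorescence ratio B-score at least 3 SD of library B-scores, with initial fluorescence B-score within 3 SD, cut at about 5.3 in these data; same plate scores as AID 2156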;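 note: B-score of peak minus minimum over baseline fluorescence ratio after K+ and Tl+ stimulus; positive B-score means potentiation of KCNQ2 with more thallium influx and brighter signal; only the inactives scoring about 0 or higher are listed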
Target sequence (O88943 whole entry, looked up): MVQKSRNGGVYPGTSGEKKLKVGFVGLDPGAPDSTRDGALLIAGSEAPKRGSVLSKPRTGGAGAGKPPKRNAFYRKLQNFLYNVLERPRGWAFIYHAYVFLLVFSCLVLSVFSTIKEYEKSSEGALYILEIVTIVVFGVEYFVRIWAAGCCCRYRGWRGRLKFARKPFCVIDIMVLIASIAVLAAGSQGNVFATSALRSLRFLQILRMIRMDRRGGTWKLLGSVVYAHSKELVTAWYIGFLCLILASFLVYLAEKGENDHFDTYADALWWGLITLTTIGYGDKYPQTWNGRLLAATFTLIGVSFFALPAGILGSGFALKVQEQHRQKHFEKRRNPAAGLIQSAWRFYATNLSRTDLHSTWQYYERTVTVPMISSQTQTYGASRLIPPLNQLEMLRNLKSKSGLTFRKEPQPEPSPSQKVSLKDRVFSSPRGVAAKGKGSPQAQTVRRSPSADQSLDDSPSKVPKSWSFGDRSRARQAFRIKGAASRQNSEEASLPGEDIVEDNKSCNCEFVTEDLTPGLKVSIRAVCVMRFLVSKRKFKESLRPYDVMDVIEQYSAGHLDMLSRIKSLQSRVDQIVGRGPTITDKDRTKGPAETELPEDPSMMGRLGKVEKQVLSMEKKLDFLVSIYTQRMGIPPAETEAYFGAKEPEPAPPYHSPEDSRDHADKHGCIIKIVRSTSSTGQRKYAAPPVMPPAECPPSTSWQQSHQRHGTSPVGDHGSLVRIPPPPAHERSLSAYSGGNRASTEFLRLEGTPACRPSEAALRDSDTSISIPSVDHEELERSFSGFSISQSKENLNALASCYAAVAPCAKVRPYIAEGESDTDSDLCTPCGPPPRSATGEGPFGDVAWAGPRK
KCNQ2 enhance baseline = also measured in KCNQ2 enhance; calls as there; B-score; compound at 10 µM; measured here: initial fluorescence intensity artifact check;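 brightness before thallium and not channel activity; 0 = typical well and far values either way flag optical interference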
* = called active by the depositor. Some of the compounds tested; rates above refer to the full screens.

Start of the data: the first 5 compounds, ahead of the listing:
SMILES	KCNQ2 enhance	KCNQ2 enhance baseline
COc1ccccc1Nc1c2c(nc3ccc(N)cc13)CCCC2	2.9	-0.08
CCN(CC)C(=S)NC(=O)c1ccc(OC)c(Br)c1	2.2	0.12
Oc1ccc(C2=NN(c3ccccc3)C(c3ccc(F)cc3)C2)cc1 (centres undefined)	12*	-0.67*
COc1ccc(-n2nnnc2SCC(=O)Nc2cccc(C)n2)cc1OC	0.91	0.64
C/C(=N/OC(=O)c1ccc(F)cc1)c1ccc(C)cc1	0.92	-0.31

The whole of this part, repeating the preview:
SMILES	KCNQ2 enhance	KCNQ2 enhance baseline
COc1ccccc1Nc1c2c(nc3ccc(N)cc13)CCCC2	2.9	-0.08
CCN(CC)C(=S)NC(=O)c1ccc(OC)c(Br)c1	2.2	0.12
Oc1ccc(C2=NN(c3ccccc3)C(c3ccc(F)cc3)C2)cc1 (centres undefined)	12*	-0.67*
COc1ccc(-n2nnnc2SCC(=O)Nc2cccc(C)n2)cc1OC	0.91	0.64
C/C(=N/OC(=O)c1ccc(F)cc1)c1ccc(C)cc1	0.92	-0.31
Cc1cc(N/N=C/c2ccc(N(C)C)cc2)c2ccccc2n1	0.01	-1.5
COc1ccc(OCCCn2cccc2/C=C2/C(=N)N3OC(C)=CC3=NC2=O)cc1	0.22	-0.34
CCOc1ccc(-c2cc(C(=O)N3CCCC3)c3ccccc3n2)cc1	1.1	0.01
COC(=O)c1ccn(-c2nc(-c3ccco3)cc(C(F)(F)F)n2)n1	0.7	-0.65
COCCN1C(=O)c2ccc(C(=O)NCc3cccnc3)cc2C1=O	0.34	-1.4
O=C(C1CCN(CCCc2ccccc2)CC1)N1CCCCC1	1.6	-1.1
COc1nccc(NCc2ccccc2)c1C#N	1.6	3
O=C(O)c1cc(-c2ccccc2)n[nH]1	1.3	0.07
Cc1nc2ccccc2c2oc(C(=O)N3CCN(C(=O)c4ccco4)CC3)cc12	0.69	1.4
O=c1[nH]c2ccc(NC(=S)NC3CCCCC3)cc2[nH]1	0.24	-0.23
CC1=CC(C)(C)[N+](C)(C)c2ccccc21	0.61	0.85
O=C(CS(=O)(=O)c1ccc(Br)cc1)N1CCOCC1	0.07	0.46
Cc1ccc(-c2csc3nc[nH]c(=O)c23)c(C)c1	0.77	1.2
COc1cnc(-c2ccccn2)nc1Oc1ccc(Cl)c2ccccc12	2	-0.03
COc1ccc(/C=N/OCC(=O)Nn2c(C)nc3ccccc3c2=O)cc1	1.4	0.02
CC1CCN(c2cc(N3CCC(C)CC3)c([N+](=O)[O-])cc2/C=C(\C#N)c2nn(-c3ccccc3)c(N)c2C#N)CC1	0.85	0.16
O=C(/C=C/c1c(Cl)cccc1Cl)n1cccn1	1.5	0.33
Cn1c(SCC(=O)N/N=C/C=C\c2ccccc2[N+](=O)[O-])nc2ccccc21	0.19	-1.7
O=c1[nH]c(-[n+]2ccc3ccccc3c2)c(/C=N/N=C(\[O-])c2ccccc2)s1	2.5	-0.1
COC(=O)c1c(NC(=O)Cc2ccccc2)sc2c1CCN(C(C)C)C2	1.2	0.94

Later entries.
SMILES	KCNQ2 enhance	KCNQ2 enhance baseline
Cn1ccc(O)c(C#N)c1=O	0.04	-1.4
CC(=O)OC(COC1C[C@@H]2CC[C@@]1(C)C2(C)C)C[N+]1(C)CCCCC1 (some centres undefined)	0.03	0.85
COC(=O)c1cc(NC(=O)Cn2nc(C)n3cccc3c2=O)cc(C(=O)OC)c1	0.26	0.46
Cc1ccc(S(=O)(=O)Nc2ccc(O)c3ccccc23)c(C)c1	2	-4.6
CN(CCC1CCOCC1)Cc1nc(Cc2ccccc2F)no1	1.7	0.59
COc1ccc(OC)c(NC(=O)CSc2nnnn2-c2ccc3c(c2)OCO3)c1	1.7	-0.6
CC(=O)NCCC(=O)Nc1cc(S(=O)(=O)N2CCOCC2)ccc1Oc1ccccc1	0.64	0.95
COc1cccc(/C=C2\SC(=S)N(CCC(=O)NC3C=CS(=O)(=O)C3)C2=O)c1 (centres undefined)	0.52	-1.9
O=C(/C=C/c1ccccc1)N1CCC[C@H]1CO	0.73	0.17
O=C(/C=C/c1ccc(Cl)cc1)NC(=S)Nc1ccc(NC(=O)c2ccco2)cc1	1.2	-1.1
COc1cccc(NC(=O)[C@@H](NC(=O)N2CCn3c2nc2ccccc23)C(C)C)c1	0.96	1.1
CCOC(=O)C1=C(C)Nc2nc3ccccc3n2C1c1ccncc1 (centres undefined)	1.1	0
O=C1NC(=O)C(CC(=O)N(Cc2cccs2)C2(C(=O)NC3CCCCC3)CCCCC2)N1 (centres undefined)	0.92	-2.1
O=C(CN1C(=O)NC(Cc2ccccc2)C1=O)NC(=O)NC1CCCCC1 (centres undefined)	2	0.24
Cc1nn(CC(=O)NC(C)CCc2ccccc2)c(=O)c2nn(-c3ccccc3)c(C)c12 (centres undefined)	1	1.5
COc1ccc(C(=O)NC2CC3CCCC(C2)N3Cc2ccccc2)cc1OC (centres undefined)	1.8	-1.3
CC(C)Oc1ccc(C(=O)Nc2ccc(C(F)(F)F)n(C)c2=O)cc1	0.54	0.16
O=C(Nc1ccc(Cl)cc1)N(Cc1nnc2n1CCCCC2)c1ccccc1	0.14	2.8
CCN1C(=O)CC(N2CCC(Cc3ccccc3)CC2)C1=O (centres undefined)	4.5	0.46
Cc1cc(C)c(C#N)c(N2CCN(S(=O)(=O)Cc3ccccc3)CC2)n1	0.61	-0.73
COc1ccc(C2CC3(CC(C)(C)NC(SC)=N3)Oc3cc(O)cc(C)c32)cc1 (centres undefined)	0.02	0.36
O=C(Nc1ccc(S(=O)(=O)N2CCCC2)cc1)c1c(F)cccc1F	0.78	0.76
COc1ccc(-c2noc(C3CCCN(C(=O)c4ccccc4OC)C3)n2)cc1OC (centres undefined)	1.5	-0.67
O=C(NCc1ccc2c(c1)OCO2)c1cccc(N2CCCC2=O)c1	0.32	-2.5
O=C(Nc1cccc(N2C(=O)C3CCCCC3C2=O)c1)c1ccccc1 (centres undefined)	2.1	-1.1

Next section
SMILES	KCNQ2 enhance	KCNQ2 enhance baseline
CC(C)(C)C(=O)N1CCC(O)(CS(=O)(=O)Cc2ccccc2Cl)CC1	0.03	-0.4
CCOc1ccc(CN2CCN(CC3CC3)CC2CCO)cc1 (centres undefined)	0.2	-1.8
O=C(OCC(=O)N1CCCC1=O)c1nc(Cl)ccc1Cl	1.2	2.5
O=C(NC1CCSC1=O)c1cccc(C(=O)NC2CCSC2=O)c1 (centres undefined)	0.53	-1.5
COc1ccc(CN2C3CCCC2CC(NC(=O)c2cccc(F)c2)C3)cc1 (centres undefined)	0.27	-0.23
O=C(Nc1scc(-c2ccc(Br)cc2)c1C(=O)O)c1ccccc1F	5.3*	0.07*
CCOC(=O)c1c(OCCO)nn(-c2ccccc2)c1N	0.05	-0.02
O=C(NCc1ccccn1)c1cccc(S(=O)(=O)NCc2ccccc2)c1	0.11	0.11
CC(C)(CCl)C(=O)Nc1ccnc(-c2ccncc2)n1	1.1	-1.6
CN1C=CC=C/C1=C1\SC(=S)N(CC(=O)O)C1=O	1.2	-2.6
COc1ccc(/C=C(\C#N)c2nc3ccccc3[nH]2)cc1O	0.31	-0.36
CCCCCCCCCC(=O)N1CCN(c2cc3c(cc2F)c(=O)c(C(=O)O)cn3CC)CC1	1.4	0
Cc1ccccc1OCC(=O)N/N=C/C=C/c1ccccc1	0.17	0.87
CN(c1ccccc1)c1nc(N)c([N+](=O)[O-])c(N2CCCC2)n1	0.82	1.1
Cc1cc(S(=O)(=O)Nc2ccc(C(=O)N3CCN(c4ccccc4O)CC3)cc2)ccc1F	0.35	-0.41
Cn1c(CNC(=O)CNC(=O)c2ccc(F)cc2)cc(=O)n(C)c1=O	0.08	0.35
Cc1cc(C)n(C(=O)Cn2nc([N+](=O)[O-])c(Br)c2C)n1	0.22	-0.38
O=C(Nc1cccc(NC(=O)c2cccs2)c1)c1ccc(Br)o1	1.4	0.52
CC(OC(=O)CCCN=C1NS(=O)(=O)c2ccccc21)C(=O)Nc1ccccc1F (centres undefined)	0.81	0.12
O=C1NC2c3ccccc3C(=O)N2c2c1cnn2-c1ccccc1 (centres undefined)	0.27	-0.56
O=C1CCCC(O)=C1N=Nc1c(Cl)cc(C(F)(F)F)cc1Cl	1.3	-0.15
Cc1ccc(O)c(NC(=O)c2noc3c2CCc2ccccc2-3)c1	0.17	0.52
CCOc1ccccc1NC(=S)NC(=O)C1CC1	0.2	1.6
CCCSC1=C(C#N)C(c2cc(OC)ccc2OC)CC(=O)N1 (centres undefined)	0.21	0.73
COc1cc(C=Nc2cccc(C)c2)c(O)c([N+](=O)[O-])c1	0.2	-1.6

New compounds follow:
SMILES	KCNQ2 enhance	KCNQ2 enhance baseline
CC(C)OCCCNC(=O)c1ccc2c(=O)n(Cc3ccc4c(c3)OCO4)c(=S)[nH]c2c1	1.1	0.06
O=C(CSc1c(F)c(F)cc(F)c1F)Nc1ccc(C2SCCS2)cc1	1.7	-1.8
CCOc1ccc(N=C2NC(=O)C(CC(=O)O)S2)cc1 (centres undefined)	0.87	1.8
C/C=C/c1ccc(OCCCNC2CCCC2)c(OC)c1	1	0.07
CN1CCN(c2ccc(C(=O)c3ccccc3)cc2[N+](=O)[O-])CC1	1.5	-1.4
COC(=O)CCCC(=O)N1CCC(CCC(=O)NCc2ccc(F)cc2)CC1	0.5	-0.35
Fc1ccc(-c2nc3cnccn3c2NC2CCCC2)cc1	0.79	-0.22
O=C(OCc1nc2ccccc2[nH]1)C1CCCCC1	0.3	0.02
OCc1ccnc2c(O)cccc12	0.65	0
CN(Cc1ccco1)C(=O)c1ccc(N2CCCC2=O)cc1	0.12	2
COc1ccc(CN2CCN(C(=O)c3cccs3)CC2)c(OC)c1OC	1.1	-0.23
CC(C)C(=O)c1ccc(O)c(O)c1	0.93	0.77
Cn1c(C(=O)N2CCOCC2)cc2c(=O)n3ccccc3nc21	0.62	-0.28
Cc1cc(C)n2nc(C(=O)N/N=C/c3ccccc3C)nc2n1	1.3	-0.32
COc1ccc(CCC(=O)Nc2ccc(C(=O)c3ccncc3)cc2)cc1	1.8	-0.63
NC(N)=NS(=O)(=O)c1ccc(NC(=S)NC(=O)c2ccncc2)cc1	1.6	-0.64
CCOc1ccc(OCc2ccc(C(=O)N(CC)CC)cc2)cc1	0.21	-0.94
N#CC1=C(SCC(=O)NC23CC4CC(CC(C4)C2)C3)NC(=O)C(C#N)C12CCCCC2 (centres undefined)	1.2	-1.5
CC(C)C[C@@]12C(=O)N(c3cccc(Cl)c3)C(=O)N1[C@H](c1ccc(F)cc1)[C@@H]1C(=O)N(C3CCCCC3)C(=O)[C@@H]12	0.44	-1.2
Cn1cc(-c2nc3ccccc3[nH]2)c2ccccc21	0.94	-2.5
CCc1nc(N)c(C#N)c(-c2ccc(F)cc2)c1C	0.91	-2.9
O=C(Cc1ccccc1F)NCC(=O)Nc1ccccc1Br	0.6	-1
O=C(c1ccccc1)c1cnc(-c2ccccc2)s1	0.85	0.6
CCNc1nc(Oc2ccc(=O)n(C)n2)nc(N2CCOCC2)n1	0.2	0.52
CCC(CC)C(=O)Nc1nnc(SCC(=O)N2CCN(c3ccccc3OC)CC2)s1	0.72	-1.2

The list continues.
SMILES	KCNQ2 enhance	KCNQ2 enhance baseline
O=C(CNC(=O)c1ccco1)Nc1ccc(F)c(Cl)c1	0.06	0.62
CCC(=O)Nc1ccc(-c2nc(-c3ccccc3)n(CC(=O)N3CCCCC3)n2)cc1	0.77	-2.3
O=C(NCc1ccncc1)C(=O)N/N=C/c1cccnc1	0.1	-1
Cc1nn(Cc2ccccc2)c(C)c1C(=O)NCC(c1cccs1)N1CCOCC1 (centres undefined)	0.03	0.6
Cc1cc(-c2nnco2)c(C)n1-c1ccccc1	1.1	0.41
O=C(CN(C(=O)CCC(=O)Nc1nccs1)c1ccc(F)cc1)NCCc1ccccc1	0.01	-0.32
O=C(CSc1nnc(CCCO)n1-c1ccccc1)Nc1nccs1	0.73	-0.71
COc1ccc(/C(C)=N/NC(=O)c2ccncc2)cc1[N+](=O)[O-]	0.42	-2.5
CSc1ccc(C#N)cc1NC(=O)c1cccc(Cl)c1	0.45	-0.09
Nc1cc(S(=O)(=O)Nc2ccccc2Cl)ccc1N1CCCC1	0.08	-0.43
O=C1c2ccccc2NC(c2ccccn2)N1c1ccccc1F (centres undefined)	1	-1.3
O=C(NNS(=O)(=O)c1ccccc1F)c1cc(-c2ccccc2)n[nH]1	0.46	0.57
Cc1ccc(CSCCNC(=O)CN2C(=O)c3ccccc3S2(=O)=O)cc1	0.51	0.67
O=C(CNC(=O)C1CCCCC1)NC1=NCCS1	1.7	-0.44
O=C(Nc1ccc(Cl)cc1C(F)(F)F)c1ccccc1Cl	0.44	-2.2
CC(C)Cc1n[nH]c(=O)[nH]1	0.97	0.13
O=C(NCCS(=O)(=O)NCCc1ccccc1)c1ccc2c(c1)OCO2	0.97	1.1
COc1ccccc1Oc1ccc2c(c1)C(=O)N(CC1CCCO1)C2=O (centres undefined)	0.75	-0.18
Cn1nc(C(F)(F)F)c(C(=O)Nc2ccc(F)cc2F)c1Oc1cccc(Cl)c1	0.28	0.02

Some values from the entries so far.
COc1ccccc1Oc1ccc2c(c1)C(=O)N(CC1CCCO1)C2=O (centres undefined) in KCNQ2 enhance baseline: -0.18
O=C(Nc1ccc(Cl)cc1C(F)(F)F)c1ccccc1Cl in KCNQ2 enhance: 0.44
O=C(NCc1ccncc1)C(=O)N/N=C/c1cccnc1 in KCNQ2 enhance: 0.1
O=C(CNC(=O)C1CCCCC1)NC1=NCCS1 in KCNQ2 enhance baseline: -0.44

Full records, quoted from the list:
O=C(CSc1nnc(CCCO)n1-c1ccccc1)Nc1nccs1 is listed with KCNQ2 enhance = 0.73; KCNQ2 enhance baseline = -0.71
Cn1cc(-c2nc3ccccc3[nH]2)c2ccccc21 is listed with KCNQ2 enhance = 0.94; KCNQ2 enhance baseline = -2.5
